Bioassay records as filed in PubChem BioAssay.
Vaccinia inh: blocks a specific stage of Vaccinia orthopoxvirus infection; Vaccinia-infected cells, mCherry/Venus stage reporter fluorescence; stronger effect = lower value; some inactives read as strong as hits; activity change (mCherry), % (concentration not given with the values); 89,000 tested, 0.01% active;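 active = mCherry past -33% and 40 or more points under the early reporter, replicates agreeing; inconclusive = past -33% without that gap or agreement; tested in A549 cells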;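 note: scaled between vehicle wells and reference inhibitor wells; 23 nL library stock went into each well; one replicate is shown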
Vaccinia inh Venus: further read-out of Vaccinia inh, marked with its call; activity change (Venus), %; measured here: Venus reporter, other viral stage;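 negative = less Venus signal; first of two replicates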
* marks the source's active call; other numbers are inactive results; ? = inconclusive; . = no result given.

| mol | Vaccinia inh | Vaccinia inh Venus |
| --- | --- | --- |
| N#C[C@@H]1[C@H](c2ccc(C3=CCCC3)cc2)[C@@H](CO)N1C(=O)Cc1ccncc1 | 6 | 9 |
| O=C(C[C@@H]1CC[C@@H](NS(=O)(=O)c2cccc(F)c2)[C@@H](CO)O1)NCc1ccc2c(c1)OCO2 | -5 | 2 |
| C[C@H](CO)N1C[C@H](C)[C@@H](CN(C)C(=O)Nc2ccc3c(c2)OCO3)Oc2ccc(NC(=O)Cn3cnnn3)cc2C1=O | 34 | 19 |
| CCCC(=O)N1CC2(CN(Cc3nccs3)C2)c2c([nH]c3cc(OC)ccc23)[C@H]1CO | 5 | 8 |
| CCCC#Cc1ccc([C@@H]2[C@H]3CN(Cc4ccncc4)CCCCN3[C@H]2CO)cc1 | 8 | 11 |
| Cc1noc(C)c1S(=O)(=O)N(C)C[C@@H]1OCc2ccccc2-c2c(n(C)c3ccccc23)C(=O)N([C@@H](C)CO)C[C@@H]1C | ? | . |
| CC(C)NC(=O)N(C)C[C@H]1Oc2ncc(C#Cc3ccc(F)cc3)cc2C(=O)N([C@@H](C)CO)C[C@H]1C | 0 | 2 |
| CC(C)NC(=O)N(C)C[C@H]1Oc2ncc(C3=CCCCC3)cc2C(=O)N([C@@H](C)CO)C[C@@H]1C | 19 | 0 |
| COc1ccc(S(=O)(=O)Nc2cccc3c2O[C@@H](CN(C)Cc2ccncc2)[C@H](C)CN([C@@H](C)CO)C3=O)cc1 | 21 | 19 |
| C[C@H](CO)N1C[C@H](C)[C@@H](CN(C)C(=O)CN(C)C)Oc2ncc(/C=C/c3ccccc3)cc2C1=O | -10 | -4 |
| C[C@H](CO)N1C[C@H](C)[C@H](CN(C)S(=O)(=O)c2cn(C)cn2)Oc2cc(C3=CCCC3)ccc2S1(=O)=O | 20 | 17 |
| CO[C@@H](CN(C)Cc1ccc2c(c1)OCO2)[C@@H](C)CN(C(=O)c1ccccc1)[C@H](C)CO | 12 | 11 |
| CC(C)C#Cc1ccc2c(c1)O[C@H](CN(C)C(=O)c1ccccc1)[C@H](C)CN([C@@H](C)CO)S2(=O)=O | ? | . |
| CC(=O)N1CC2(C1)[C@H](c1ccc(-c3ccc(C#N)cc3)cc1)[C@H](CO)N2CCC(F)(F)F | ? | . |
| CCC(=O)N(C)C[C@@H]1Oc2ncc(Br)cc2C(=O)N([C@H](C)CO)C[C@@H]1C | 2 | 5 |
| O=S(=O)(c1ccccc1F)N1CCCCN2[C@H](C1)[C@H](c1ccc(-c3ccccc3)cc1)[C@@H]2CO | -15 | -13 |
| C[C@H](CO)N1C[C@H](C)[C@H](CN(C)C(=O)c2ccccc2)OCCCC[C@H](C)Oc2ccc(NC(=O)CCC(F)(F)F)cc2C1=O | 17 | 6 |
| COCC(=O)N1CC[C@@H]2[C@@H](CO)N(C)c3ccc(-c4cccc(F)c4)cc3[C@@H]21 | -17 | -18 |
| O=C(C[C@H]1C=C[C@@H](NC(=O)NC2CCCC2)[C@H](CO)O1)NCc1ccc(F)cc1 | -1 | 2 |
| C[C@H]1CN([C@@H](C)CO)C(=O)c2cc(-c3cncnc3)cnc2O[C@H]1CN(C)C(=O)c1cccc(F)c1 | 5 | -1 |

(listing goes on)
| mol | Vaccinia inh | Vaccinia inh Venus |
| --- | --- | --- |
| CO[C@@H]1CN(C)C(=O)c2cc(NC(=O)Nc3ccc(Cl)cc3)ccc2OC[C@@H](C)NC[C@@H]1C | ? | . |
| CCCNC(=O)N(C)C[C@@H]1Oc2ncc(-c3ccc(OC)cc3)cc2C(=O)N([C@H](C)CO)C[C@@H]1C | 3 | 1 |
| COc1ccccc1S(=O)(=O)N[C@H]1CC[C@H](CCn2cc(C3CCCCC3)nn2)O[C@H]1CO | 2 | 0 |
| CO[C@@H]1CN(C)C(=O)c2cc(NS(C)(=O)=O)ccc2OC[C@@H](C)N(Cc2ccccc2)C[C@H]1C | -13 | -4 |
| CN(C)C(=O)C[C@H]1CC[C@@H]2[C@@H](COc3ccc(NC(=O)C4CCOCC4)cc3C(=O)N2C)O1 | 17 | 13 |
| CCCNC(=O)Nc1ccc2c(c1)OC[C@H](C)N(CCC)C[C@@H](C)[C@H](OC)CN(C)C2=O | 2 | 6 |
| COc1ccc(CN(C)C[C@@H]2OCCCC[C@@H](C)Oc3ccc(NC(=O)CCC(F)(F)F)cc3C(=O)N([C@H](C)CO)C[C@H]2C)cc1 | ? | . |
| COc1ccc(S(=O)(=O)Nc2ccc3c(c2)C(=O)N([C@H](C)CO)C[C@H](C)[C@@H](CN(C)S(=O)(=O)c2ccc(Cl)cc2)OCCCC[C@H](C)O3)cc1 | ? | . |
| CCC(=O)N1CC2(C1)[C@H](c1ccc(-c3ccc(C)cc3)cc1)[C@@H](CO)N2S(=O)(=O)CC | -16 | -8 |
| C[C@H]1CN([C@@H](C)CO)C(=O)c2cccc(NS(=O)(=O)c3ccc(F)cc3)c2O[C@@H]1CN(C)S(=O)(=O)c1cccs1 | 5 | 7 |
| C[C@@H]1CN([C@H](C)CO)C(=O)c2cc(C3=CCCC3)cnc2O[C@@H]1CN(C)C(=O)Nc1ccc(C(F)(F)F)cc1 | -32 | -25 |
| CC(C)NC(=O)N(C)C[C@H]1OCc2ccccc2-c2c(n(C)c3ccccc23)C(=O)N([C@H](C)CO)C[C@@H]1C | 28 | 20 |
| CCNC(=O)[C@@H]1[C@@H](CO)[C@@H]2Cn3c(ccc(-c4ccc(OC)cc4)c3=O)[C@H]1N2S(C)(=O)=O | 12 | 19 |
| CC(C)NC(=O)N(C)C[C@H]1OCCCC[C@H](C)Oc2ccc(NC(=O)Nc3ccc(F)cc3)cc2C(=O)N([C@@H](C)CO)C[C@H]1C | 16 | 15 |
| Cc1ccc(S(=O)(=O)Nc2ccc3c(c2)C(=O)N([C@@H](C)CO)C[C@@H](C)[C@H](CN(C)S(=O)(=O)c2ccccc2)O3)cc1 | 5 | 15 |
| O=S(=O)(N[C@H]1CC[C@@H](CCn2cc(-c3ccccn3)nn2)O[C@H]1CO)c1cccc(Cl)c1 | -16 | -7 |
| CCCC(=O)Nc1ccc2c(c1)C(=O)N(C)C[C@@H](OC)[C@@H](C)CN(Cc1ccccc1F)[C@H](C)CO2 | -17 | -18 |
| CNC[C@H]1Oc2ccc(NC(=O)Cn3cnnn3)cc2CC(=O)N([C@@H](C)CO)C[C@@H]1C | 8 | 1 |
| CN1C(=O)c2cc(NC(=O)c3cscn3)ccc2OC[C@@H]2O[C@@H](CC(=O)NCc3ccc(Cl)c(Cl)c3)CC[C@H]21 | -15 | 4 |
| C[C@H]1CN([C@@H](C)CO)C(=O)c2cc(NS(=O)(=O)c3cn(C)cn3)ccc2O[C@@H]1CN(C)CC1CCCCC1 | 9 | 12 |

Following part.
| mol | Vaccinia inh | Vaccinia inh Venus |
| --- | --- | --- |
| CCNC(=O)C[C@H]1CC[C@@H]2[C@H](COC[C@H](O)CN2C(=O)Nc2ccc3c(c2)OCO3)O1 | 8 | 0 |
| CCCNC(=O)[C@@H]1[C@@H](CO)[C@@H]2Cn3c(ccc(/C=C/c4ccccc4)c3=O)[C@H]1N2C(=O)C1CCC1 | 5 | 4 |
| O=C(C[C@H]1CC[C@H]2[C@@H](COC[C@@H](O)CN2S(=O)(=O)c2ccc(Cl)cc2)O1)N[C@H]1CCN(Cc2ccccc2)C1 | -22 | -18 |
| C[C@H](CO)N1C[C@H](C)[C@H](CN(C)S(=O)(=O)c2ccccc2)OCCCC[C@H](C)Oc2ccc(NC(=O)CCC(F)(F)F)cc2C1=O | -10 | -14 |
| COc1ccc(NC(=O)N2C[C@H](O)COC[C@@H]3O[C@H](CC(=O)N4CCN(C)CC4)CC[C@H]32)cc1 | 2 | 4 |
| CCCC#Cc1ccc2c(c1)O[C@@H](CN(C)S(=O)(=O)c1cccc(F)c1)[C@H](C)CN([C@@H](C)CO)S2(=O)=O | -14 | -10 |
| C[C@H](CO)N1C[C@H](C)[C@H](CN(C)CC2CC2)Oc2cc(C3=CCCC3)ccc2S1(=O)=O | -14 | -19 |
| CC(=O)N1[C@@H]2c3cccc(=O)n3C[C@@H]2[C@@H](CO)[C@@H]1C(=O)N1CCc2ccccc2C1 | -1 | 0 |
| COCC(=O)Nc1ccc2c(c1)C(=O)N(C)C[C@H](OC)[C@@H](C)CN(C(C)=O)[C@@H](C)CO2 | 5 | 4 |
| C[C@H]1CN([C@@H](C)CO)C(=O)c2cc(C#CC3CCCC3)cnc2O[C@@H]1CN(C)S(=O)(=O)c1cccc(F)c1 | -9 | -13 |
| CNC[C@H]1Oc2c(NC(=O)Nc3ccc(C(F)(F)F)cc3)cccc2C(=O)N([C@@H](C)CO)C[C@@H]1C | -17 | -12 |
| C[C@H](CO)N1C[C@H](C)[C@@H](CN(C)C(=O)Nc2ccc(C(F)(F)F)cc2)Oc2c(NC(=O)Nc3ccc(C(F)(F)F)cc3)cccc2C1=O | ? | . |
| CCCN(C)C[C@H]1OCCCC[C@@H](C)Oc2ccc(NC(=O)Nc3ccccc3)cc2C(=O)N([C@@H](C)CO)C[C@H]1C | ? | . |
| CCNC(=O)C[C@H]1CC[C@@H]2[C@H](COc3ccc(NC(=O)Nc4cccc(F)c4)cc3C(=O)N2C)O1 | -7 | -4 |
| CNC[C@H]1Oc2c(NS(=O)(=O)c3c(C)noc3C)cccc2C(=O)N([C@@H](C)CO)C[C@H]1C | 6 | 2 |
| CNC[C@H]1Oc2ccc(NC(=O)Nc3ccc(F)cc3)cc2C(=O)N([C@@H](C)CO)C[C@@H]1C | 23 | 18 |
| CO[C@@H]1CN(C)C(=O)c2ccc(NC(=O)c3cc(C)on3)cc2OC[C@H](C)NC[C@H]1C | -3 | -2 |
| COc1cccc(NC(=O)N[C@@H]2CC[C@@H](CC(=O)N3CCOCC3)O[C@@H]2CO)c1 | 6 | 6 |
| CC(=O)N1Cc2cc(C(=O)NCC(F)(F)F)nc(-c3cccc(-c4cccnc4)c3)c2[C@@H]1CCO | ? | . |
| COc1ccccc1CNC(=O)C[C@H]1CC[C@H](NC(=O)CC2CC2)[C@@H](CO)O1 | -4 | -3 |

Reprinted at random: 4 records from the list
| mol | Vaccinia inh | Vaccinia inh Venus |
| --- | --- | --- |
| CNC[C@H]1Oc2c(NC(=O)Nc3ccc(C(F)(F)F)cc3)cccc2C(=O)N([C@@H](C)CO)C[C@@H]1C | -17 | -12 |
| CCCC(=O)Nc1ccc2c(c1)C(=O)N(C)C[C@@H](OC)[C@@H](C)CN(Cc1ccccc1F)[C@H](C)CO2 | -17 | -18 |
| CCCC(=O)N1CC2(CN(Cc3nccs3)C2)c2c([nH]c3cc(OC)ccc23)[C@H]1CO | 5 | 8 |
| CC(C)NC(=O)N(C)C[C@H]1OCc2ccccc2-c2c(n(C)c3ccccc23)C(=O)N([C@H](C)CO)C[C@@H]1C | 28 | 20 |

Molecules above containing a cyano group, in the order listed:
| mol | Vaccinia inh | Vaccinia inh Venus |
| --- | --- | --- |
| N#C[C@@H]1[C@H](c2ccc(C3=CCCC3)cc2)[C@@H](CO)N1C(=O)Cc1ccncc1 | 6 | 9 |
| CC(=O)N1CC2(C1)[C@H](c1ccc(-c3ccc(C#N)cc3)cc1)[C@H](CO)N2CCC(F)(F)F | ? | . |

(next part)
Every second line gives: Vaccinia inh, Vaccinia inh Venus
Cc1ccc(S(=O)(=O)Nc2ccc3c(c2)C(=O)N([C@@H](C)CO)C[C@H](C)[C@H](CN(C)S(=O)(=O)c2ccc(F)cc2)OCCCC[C@@H](C)O3)cc1
  9, 7
COc1ccccc1CN(C)C[C@H]1OCc2cnnn2CCCC(=O)N([C@H](C)CO)C[C@H]1C
  2, 4
C[C@@H]1CN([C@H](C)CO)C(=O)Cc2cc(NS(=O)(=O)c3ccc(F)cc3)ccc2O[C@@H]1CN(C)CC1CCCCC1
  -23, -18
C[C@H]1CCCCO[C@@H](CN(C)Cc2ccc3c(c2)OCO3)[C@@H](C)CN([C@@H](C)CO)C(=O)c2cc(NS(=O)(=O)c3ccccc3)ccc2O1
  ?, .
C[C@@H]1CN([C@H](C)CO)C(=O)CCCn2nncc2CO[C@@H]1CN(C)C(=O)Nc1ccccc1C(F)(F)F
  11, 6
O=C(N[C@H]1CC[C@H](CCn2cc(-c3cccnc3)nn2)O[C@H]1CO)c1ccccc1F
  -6, -9
C[C@@H]1CN([C@@H](C)CO)C(=O)Cc2cc(NS(=O)(=O)c3ccc(Cl)cc3)ccc2O[C@H]1CN(C)Cc1ccc(Oc2ccccc2)cc1
  ?, .
O=C(c1cccc(F)c1)N1CC(=O)N2[C@H](CO)[C@H](c3ccc(C4=CCCCC4)cc3)[C@@H]2C1
  -13, -8
C[C@@H]1CCCCO[C@H](CN(C)C)[C@H](C)CN([C@H](C)CO)C(=O)c2cc(NC(=O)C3CCCCC3)ccc2O1
  -7, -7
COCCNC(=O)C[C@@H]1C[C@H]2c3cc(NC(=O)NC4CCCCC4)ccc3O[C@H]2[C@@H](CO)O1
  10, 6
CCCC#Cc1ccc([C@@H]2[C@H](CO)N3CCCCN(C(=O)Cc4ccccn4)C[C@@H]23)cc1
  0, 1
C[C@@H]1CCCCO[C@H](CN(C)Cc2ccc(Cl)c(Cl)c2)[C@H](C)CN([C@@H](C)CO)C(=O)c2cc(NC(=O)NC3CCCCC3)ccc2O1
  -17, -9
COc1ccccc1CN1[C@H](CO)[C@@H]2c3ccccc3N(C(=O)C3CCCC3)C[C@@H]21
  -22, -1
CCC(=O)Nc1ccc2c(c1)OC[C@H](C)N(C(=O)c1ccccc1F)C[C@@H](C)[C@@H](OC)CN(C)C2=O
  2, -1
C[C@H]1CN([C@@H](C)CO)C(=O)c2cccc(NS(=O)(=O)c3ccc(Cl)cc3)c2O[C@H]1CN(C)C
  10, 3
COc1ccc(CNC(=O)C[C@H]2CC[C@@H](NC(=O)c3cccc(F)c3)[C@H](CO)O2)cc1
  -5, 0
COc1ccc(S(=O)(=O)Nc2cccc3c2O[C@@H](CN(C)C)[C@@H](C)CN([C@H](C)CO)C3=O)cc1
  -4, 1
O=C(Nc1ccc(Cl)c(Cl)c1)N[C@@H]1CC[C@@H](CCn2cc(C3CC3)nn2)O[C@@H]1CO
  1, 3

An excerpt; rates above refer to the full screens.
